Screening data from PubChem.
Mtb growth: Mycobacterium tuberculosis H37Rv growth inhibition, putative kinase inhibitor library, confirmatory dose response (AID 2842); 24,000 tested, 5.2% active; inhibition, % at 10 µg/mL; hits with a dose series show IC90 in µg/mL; M. tuberculosis H37Rv growth inhibition; higher % means a stronger effect; some inactives read as strong as hits;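 active = confirmed in a dose series; about a fifth of its hits are not listed in these tables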;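 note: bacteria incubated one week before Alamar blue readout; 0% = bacteria only wells and 100% = bacteria with high antibiotic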
Active calls of the source: *. A portion of the library. The share of hits here may be higher or lower than overall.

SMILES | Mtb growth
COc1ccc(Cl)cc1C(=O)Nc1c(C(=O)Nc2ccc(F)cc2)oc2ccccc12 | -7.5%
Cc1c(Cl)cccc1NC(=O)CSc1nc2c(c(=O)[nH]1)CN(Cc1ccccc1)CC2 | 4.5%
CCCCNC(=O)CC1Nc2cc(C)c(C)cc2NC1=O (stereo not given) | 4.8%
Cc1cccc(NCC(=O)Nc2ncc(Cc3ccccc3Cl)s2)c1 | -3.9%
CC1CN(C(=O)CSc2nc(N)c(NC(=O)c3ccco3)c(=O)[nH]2)CC(C)O1 (stereo not given) | -4.8%
CC(=O)N1CCc2c(sc(NC(=O)c3cccc(C(F)(F)F)c3)c2C(N)=O)C1 | 39.9%
Cc1ccc(Cc2cnc(NC(=O)c3cc(C)oc3C)s2)cc1 | -6.2%
O=C(Cc1ccccc1)Nc1nc(-c2ccc3c(c2)OCCO3)cs1 | 12.2%
O=C(CSc1ccc2nnc(-c3ccccc3)n2n1)Nc1nc2ccccc2s1 | 1.9%
Cc1c(Cc2ccc3c(c2)OCO3)sc(NC(=O)CCc2ccccc2)c1C#N | -0.8%

The last 2 records of the part above are carried over, then new ones follow:
SMILES | Mtb growth
O=C(CSc1ccc2nnc(-c3ccccc3)n2n1)Nc1nc2ccccc2s1 | 1.9%
Cc1c(Cc2ccc3c(c2)OCO3)sc(NC(=O)CCc2ccccc2)c1C#N | -0.8%
CNC(=O)c1ccsc1NC(=O)c1coc2ccccc2c1=O | -1.5%
O=C(COc1ccc(Cl)cc1)N1CCN=C1SCc1ccccc1F | 44.3%
O=C(CC1(O)C(=O)Nc2ccc(Br)cc21)c1cccc(NS(=O)(=O)c2ccccc2)c1 (stereo not given) | 6.1%
CS(=O)(=O)c1cccc(-c2nnc(NC(=O)c3ccc(Cl)cc3)o2)c1 | 39.5%
COc1ccc(OC)c(NC(=O)c2oc3ccccc3c2NC(=O)c2cc(Cl)ccc2[N+](=O)[O-])c1 | -4.1%
Cn1c(=O)[nH]c(=O)c2c1nc(N1CCN(CC(N)=O)CC1)n2Cc1ccccc1 | -1.1%
Cc1ccc(C)c(-c2nnc(NC(=O)C3CC3)o2)c1 | 1.46µg/mL*
CC(=O)Nc1ccc(Nc2nc(-c3ccccc3)c3cc(Cl)ccc3n2)cc1 | 6.7%
c1ccc2c(c1)OCC(CNc1ncnc3nc[nH]c13)O2 (stereo not given) | 14.5%
CCCCC(=O)Nc1nnc(-c2ccc(C)cc2)s1 | -0.4%
CCOC(=O)c1nn(-c2ccc(F)cc2)c(=O)c2c(NC(=O)c3ccc([N+](=O)[O-])cc3)scc12 | -5.8%
O=c1cc(C(F)(F)F)c2cc3c(cc2[nH]1)OCO3 | -0.4%
Fc1ccc2nc(NCc3ccccc3)sc2c1 | 8.5%
COc1cccc2c(=O)n(CC(=O)Nc3ccccc3F)ccc12 | 13.6%
CCOC(=O)CSCC(=O)Nc1nnc(-c2cccc([N+](=O)[O-])c2)s1 | 6.7%
Cc1cc(NC(=O)C(C)(C)C)nc2c1c(=O)oc1ccccc12 | 4.1%
CCOC(=O)c1c(NC(=O)CC2Nc3ccccc3NC2=O)sc2c1CCC(C)C2 (stereo not given) | 1.4%
COc1ccc(OC)c2[nH]c(=O)c(CCNC(=O)c3ccc(Cl)cc3)cc12 | 8.8%
COC(=O)c1ccc2nc(NC(=O)c3ccc(F)cc3)sc2c1 | -2.1%
Cc1ccc(-n2nnc3c(=O)n(Cc4cccc([N+](=O)[O-])c4)cnc32)cc1Cl | -1.8%
CCCCCOC(=O)CSc1nc2c(c(=O)[nH]c(=O)n2C)n1Cc1ccc(Cl)cc1 | 14.1%
COCCNC(=O)C(=O)Nc1cc2c3c(c1)CC(=O)N3CCC2 | 0.3%
C=CCOc1ccc(/C(O)=C2\C(=O)C(=O)N(Cc3cccnc3)C2c2ccco2)cc1 (stereo not given) | -7.7%
COc1ccc(-n2nnc3c(SCC(=O)Nc4ccc(C(F)(F)F)cc4)ncnc32)cc1 | 3.9%
O=C(COc1cccc2c1CCN(Cc1ccccc1)C2=O)N1CCCC1 | -1.9%
Fc1cccc(Cn2cc3c(-c4ccc(Cl)cc4)nnc-3c3cc4c(cc32)OCO4)c1 | 11.1%
CCOC(=O)c1nn(-c2ccc(C(F)(F)F)cc2)c(=O)c2c(NC(=O)C(C)(C)C)scc12 | -1.4%
Cc1ccc(NC(=O)CC(C(=O)O)N2CCN(C)CC2)cc1C (stereo not given) | 4.0%
CC(=O)Nc1nnc(SCc2cc(=O)c(OC(=O)c3cccc([N+](=O)[O-])c3)co2)s1 | -10.3%
CCSc1nc2c(c(=O)[nH]c(=O)n2C)n1CCc1ccccc1 | 13.0%

Grouped by structure, those above with fluorine
SMILES | Mtb growth
COc1ccc(Cl)cc1C(=O)Nc1c(C(=O)Nc2ccc(F)cc2)oc2ccccc12 | -7.5%
CC(=O)N1CCc2c(sc(NC(=O)c3cccc(C(F)(F)F)c3)c2C(N)=O)C1 | 39.9%
O=C(COc1ccc(Cl)cc1)N1CCN=C1SCc1ccccc1F | 44.3%
CCOC(=O)c1nn(-c2ccc(F)cc2)c(=O)c2c(NC(=O)c3ccc([N+](=O)[O-])cc3)scc12 | -5.8%
O=c1cc(C(F)(F)F)c2cc3c(cc2[nH]1)OCO3 | -0.4%
Fc1ccc2nc(NCc3ccccc3)sc2c1 | 8.5%
COc1cccc2c(=O)n(CC(=O)Nc3ccccc3F)ccc12 | 13.6%
COC(=O)c1ccc2nc(NC(=O)c3ccc(F)cc3)sc2c1 | -2.1%
COc1ccc(-n2nnc3c(SCC(=O)Nc4ccc(C(F)(F)F)cc4)ncnc32)cc1 | 3.9%
Fc1cccc(Cn2cc3c(-c4ccc(Cl)cc4)nnc-3c3cc4c(cc32)OCO4)c1 | 11.1%
CCOC(=O)c1nn(-c2ccc(C(F)(F)F)cc2)c(=O)c2c(NC(=O)C(C)(C)C)scc12 | -1.4%

Next structures
SMILES | Mtb growth
Cc1cccc(NC(=O)Cn2cnc3c(cnn3-c3ccccc3)c2=O)c1C | 9.7%
COc1cccc(NC(=O)CSc2ncnc3c2oc2ccccc23)c1 | 10.7%
O=C(CCn1c(=O)oc2ccccc21)NCCC1=CCCCC1 | -5.1%
O=C(Nc1nc2c(cc3c4c(cccc42)CC3)s1)c1ccc(C(=O)c2ccccc2)cc1 | -8.6%
CCCC(=O)Oc1coc(CSc2nnc(NC(=O)C3CC3)s2)cc1=O | -8.3%
CCOC(=O)N1CCN(C(=O)c2cc3cccc(OC)c3oc2=O)CC1 | -18.3%
O=c1[nH]cc(S(=O)(=O)N2CCOCC2)c(=O)[nH]1 | 9.5%
CCOC(=O)c1nn(-c2ccc(F)cc2)c(=O)c2c(NC(=O)C3CC3)scc12 | -5.0%
Cc1ccc(C)c(NC(=O)CSc2nnc3[nH]c(=O)c(C)c(C)n23)c1 | -9.0%
Cc1ccc(CSC2=NCCN2C(=O)c2cccc([N+](=O)[O-])c2C)cc1 | 9.4%
O=C(CC1Sc2ccc(C(F)(F)F)cc2NC1=O)NC1CCCCC1 (stereo not given) | -4.2%
O=C(Nc1nc(-c2cc3ccccc3oc2=O)cs1)C1=COCCO1 | -0.4%
CCOc1ccc2ccccc2c1C(=O)Nc1c2c(nn1-c1ccc(F)cc1)CS(=O)C2 (stereo not given) | 0.2%
O=C(Nc1nnc(-c2ccco2)o1)c1ccccc1Br | 84.2%
O=C(Nc1ccccc1)c1nc[nH]c1C(=O)Nc1ccccc1 | 73.8%
O=C(CSc1ccc2nnc(-c3cccc(F)c3)n2n1)Nc1ccccc1 | -4.7%
Cc1cc(S(=O)(=O)NCCN2CCOCC2)c(C)c(C)c1C | -23.7%
O=C(c1ccccc1)c1cc(Cl)ccc1N=Cc1c(O)[nH]c(=S)[nH]c1=O | 12.9%
N#Cc1ccc(C(=O)Nc2cccc3c2C(=O)NC3=O)cc1 | -6.8%
CCOc1ccccc1NC(=O)c1oc2ccccc2c1NC(=O)Cc1ccc(OC)cc1 | -10.8%
Cc1ccc(NC(=O)CSc2ccc(-c3ccc(-n4ccnc4)cc3)nn2)cc1 | -9.8%
NC(=O)C1Cc2ccccc2N1C(=O)NCc1cccc2ccccc12 (stereo not given) | 7.2%
CCOC(=O)c1sc2nc(SCc3ccccc3C#N)n(N)c(=O)c2c1C | 0.8%
COC(=O)C1=C(C)N(Cc2ccccc2)C(=O)NC1c1ccccc1F (stereo not given) | 6.5%
COc1ccccc1CNC(=O)NC1CC(=O)N(c2ccc(C)c(C)c2)C1 (stereo not given) | 5.8%
Cc1ccc(Nc2nc(N3CCN(c4ccc(F)cc4)CC3)nc3nccnc23)cc1 | 22.4%
COc1ccc(OC)c(-c2nnc(NC(=O)CSc3ccc(Cl)cc3)s2)c1 | 1.1%
O=S(=O)(/C=C/c1ccccc1)N1CCN(Cc2ccccc2)CC1 | -1.0%
COc1ccc(Cl)cc1NC(=O)CSc1nc2c(c(=O)n1-c1ccc(F)cc1)SCC2 | 9.0%
CN(C(=O)c1ccccc1)c1nnc(C23CC4CC(CC(C4)C2)C3)s1 | 84.7%
Cc1ccc(NC(=O)CSc2nnc3ccc(-c4cccs4)nn23)cc1 | -19.2%
Cc1cc(C)cc(-n2nnc3c(=O)n(Cc4cccc(Cl)c4)cnc32)c1 | 15.9%
COc1cccc(NC(=O)CSc2ccc3nnc(-c4ccc(C)cc4)n3n2)c1 | -0.1%
CC1CCc2sc(NC(=O)c3cccc(C(F)(F)F)c3)c(C(N)=O)c2C1 (stereo not given) | -2.7%
O=C(Cc1n[nH]c(=O)[nH]c1=O)N/N=C/c1ccccc1 | -14.4%
Cn1c(=O)[nH]c(=O)c2c1nc1n(-c3ccccc3O)c(-c3ccc(F)cc3)cn21 | 78.3%
CC1CCc2cc(F)ccc2N1S(=O)(=O)c1cc2c3c(c1)CCN3C(=O)CC2 (stereo not given) | 5.8%
O=C(Nc1c(C(=O)Nc2ccc(Cl)cc2)oc2ccccc12)c1ccc2c(c1)OCO2 | 6.3%
CCc1ccc(/C=C2\SC(=O)N(CC(=O)Nc3ccc(S(N)(=O)=O)cc3)C2=O)cc1 | -8.0%
Nn1c(SCC(=O)Nc2cccc(C(F)(F)F)c2)nncc1=O | -12.2%
CC1=C(C(=O)OC(C)(C)C)C(c2ccccc2C)C(C#N)=C(N)O1 (stereo not given) | -4.6%
O=C(Nc1ccccc1C(F)(F)F)c1c[nH]c(=O)n(-c2ccc(F)cc2)c1=O | 5.3%
CCOC(=O)c1nn(-c2ccc(Cl)cc2)c(=O)c2c(NC(=O)c3ccc(Cl)cc3)scc12 | -1.0%
O=C(Nc1nc(-c2nc3ccccc3s2)cs1)c1ccc(Br)s1 | 42.4%
Cc1c(O)c(CN2CCCC2)cc2c(-c3ccccc3)cc(=O)oc12 | 69.7%
O=C(CSc1nccn1-c1cccc(Cl)c1)NO | 4.2%
COc1ccccc1NC(=O)c1oc2ccccc2c1NC(=O)/C=C\c1ccc(OC)c(OC)c1 | 5.3%
Cc1ccc(Cn2c(C3CC(=O)N(c4ccccc4F)C3)nc3ccccc32)cc1 (stereo not given) | 12.4%
CCOC(=O)N1CCc2c(sc(NC(=O)c3ccccc3)c2C(N)=O)C1 | 1.84µg/mL*
c1ccc(Nc2nc(N3CCN(c4ccccc4)CC3)nc3nccnc23)cc1 | 19.0%

Continuation.
SMILES | Mtb growth
COC(=O)C1=C(C)Nc2[nH]c(=O)[nH]c(=O)c2C1c1ccccc1F (stereo not given) | -12.1%
CCOCCn1c(=O)c2c(nc3n(-c4ccc(C)cc4)c(C)cn23)n(C)c1=O | 10.3%
COc1ccc(C(=O)NNc2nc3c(Cl)cccc3s2)cc1 | 17.7%
O=C(CCN1C(=O)/C(=C\c2ccco2)SC1=S)Nc1cccc(C(=O)O)c1 | -1.4%
COc1ccc(N2CC(NC(=O)Nc3cccc(Cl)c3)CC2=O)cc1OC (stereo not given) | -2.1%
Clc1ccc2nc(CSc3nncn3-c3ccccc3)cn2c1 | 9.5%
O=C(CSc1nnc2ccc(-c3cccc([N+](=O)[O-])c3)nn12)N1CCCCC1 | 8.3%
O=C(CSc1ccc2nnc(CCNC(=O)c3ccc(F)cc3)n2n1)Nc1ccc2c(c1)OCO2 | -0.3%
COc1ccc(/C=N/Nc2nc3c(c(=O)[nH]c(=O)n3C)n2CC(O)COC(C)C)cc1OC (stereo not given) | -5.0%
O=C(Cc1ccc(F)cc1)Oc1coc(CSc2ncccn2)cc1=O | -16.8%
Cc1ccc(-c2c(C)sc3ncn(CC(N)=O)c(=O)c23)cc1C | 9.6%
COC(=O)c1[nH]c(C)c(/C(O)=C2\C(=O)C(=O)N(CCCN(C)C)C2c2ccncc2)c1C (stereo not given) | -24.9%
Cc1cc(O)c(C(=O)Nc2cccc(Cl)c2)c(=O)n1CC1CCCO1 (stereo not given) | -13.2%
CCOC(=O)c1nn(-c2ccc(OC)cc2)c(=O)c2c(NC(=O)c3ccc(Br)cc3)scc12 | 3.3%
O=C(Nc1ccc(S(=O)(=O)Nc2nccs2)cc1)c1sc2ccccc2c1Cl | -4.7%
O=C(O)CCc1nnc(SCC(=O)Nc2cccc(C(F)(F)F)c2)[nH]c1=O | 1.9%
O=C1C(=O)N(CCCn2ccnc2)C(c2ccccn2)/C1=C(\O)c1ccc(Cl)cc1 (stereo not given) | -1.0%
O=C(CSc1nc(=O)n(CCO)c2c1CCC2)NCc1ccccc1 | 15.3%
COc1ccc(Cc2nnc(NC(C)=O)s2)cc1 | 3.6%
Cc1cccc(Cn2cc(C(=O)c3ccccc3)c(=O)c3ccccc32)c1 | 3.1%
COc1ccc(/C=N\Nc2cn[nH]c(=O)c2Br)c(OC)c1 | -3.2%
Nc1c(C(=O)Nc2ccc(F)cc2)sc2[nH]c(=O)c(C(=O)O)cc12 | 6.5%
Cc1n[nH]c(=S)n(/N=C/c2cccc(O)c2)c1=O | -10.8%
CC(C)(C)c1ccc(-n2c(=O)[nH]c3c(C(N)=O)nc(-c4ccc(Cl)cc4)nc32)cc1 | 4.6%
Cc1cccnc1NC(=O)NC1CC(=O)N(c2ccc(Cl)cc2)C1 (stereo not given) | -3.1%
Cc1ccc2nc(NC(=O)CSc3nc4c([nH]c5ccccc54)c(=O)n3-c3ccc([N+](=O)[O-])cc3)sc2c1 | 61.5%
COCCSc1nc2c(c(=O)n(C)c(=O)n2C)n1Cc1ccccc1 | 10.2%
CC(=O)Nc1nc2ccc3nc(C)sc3c2s1 | 7.0%
O=C(CSc1ccc2nnc(-c3ccc(F)cc3)n2n1)N1CCc2ccccc21 | -7.3%
